High-throughput results from PubChem BioAssay.
Rango dissoc inh = inhibitors of RanGTP-induced Rango-importin beta complex dissociation | Biochemical FRET Rango-importin beta, RanGTP-induced dissociation | Potency, µM (series often up to 46.1 µM), for the others: at the top dose activity change, negative = inhibition | 340,000 tested, 0.071% active; active means falling FRET ratio curve, often poorly fitted, with flat reads before Ran was added; inconclusive means other falling curves, or compound fluorescence or quenching; inactive means flat or rising ratio curve;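 also: potency is read from the fitted curve at half-maximal effect; % of control where 0% means no effect; nearly all actives have a fitted effect of over 45% in size; -100% = wells without RanGTP and RCC1; the record marks most hits as doubtful in a second field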
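Rango FRET biosensor (snurportin-1 IBB flanked by N-terminal EYFP and C-terminal CFP10) at 0.1 uM, with 0.25 uM importin beta in PBS, 1mM DTT, 0.02% Tween-20, 0.1% BSA. 0.6 uM Ran, 2mM GTP and 0.2 uM RCC1 were then added for 45 min at room temperature. Inhibition read as loss of FRET rise.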
miR-21 FLuc = raises the signal of a miR-21 reporter | HeLa miR-21 FLuc reporter, luciferase, 48 h | Potency, µM (titrated, usually from 38.3 µM), inactives show at the highest dose reporter change, positive = more light | 340,000 tested, under 10 active; active = well fitted rising curve with a large enough effect; inconclusive = small, poorly fitted or top-dose-only effect; inactive = no such curve, though single readings can be large or run the other way;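 also: % of control where 0% means no effect; miR-21 action dims this reporter so a rising signal means less miR-21 action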
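HeLa miR-21-FLuc reporter line, endogenous miR-21; 2000 cells/well in DMEM/10% FBS; compound titration up to ~40uM final, 48 h, 37 degree Celsius; luciferase detection reagent, 15 min lysis, CCD luminescence.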
Rango complex inh = prevents formation of the Rango-importin beta complex; Rango CFP/YFP FRET sensor + importin beta, 45 min; Potency, µM (titrated, usually from 92.2 µM), inactives show at the highest dose inhibition of complex formation; 340,000 tested, 0.031% active; AID 540263; active = rising FRET ratio curve, often small or poorly fitted; inconclusive = mostly compound fluorescence or quenching in the first reads; inactive = flat curves in all reads;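 also: potency is read from the fitted curve at half-maximal effect; 0% = DMSO wells and 100% = buffer wells lacking importin beta; nearly all actives have a fitted effect of over 15% in size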
Target sequence (Q14974 whole entry, looked up): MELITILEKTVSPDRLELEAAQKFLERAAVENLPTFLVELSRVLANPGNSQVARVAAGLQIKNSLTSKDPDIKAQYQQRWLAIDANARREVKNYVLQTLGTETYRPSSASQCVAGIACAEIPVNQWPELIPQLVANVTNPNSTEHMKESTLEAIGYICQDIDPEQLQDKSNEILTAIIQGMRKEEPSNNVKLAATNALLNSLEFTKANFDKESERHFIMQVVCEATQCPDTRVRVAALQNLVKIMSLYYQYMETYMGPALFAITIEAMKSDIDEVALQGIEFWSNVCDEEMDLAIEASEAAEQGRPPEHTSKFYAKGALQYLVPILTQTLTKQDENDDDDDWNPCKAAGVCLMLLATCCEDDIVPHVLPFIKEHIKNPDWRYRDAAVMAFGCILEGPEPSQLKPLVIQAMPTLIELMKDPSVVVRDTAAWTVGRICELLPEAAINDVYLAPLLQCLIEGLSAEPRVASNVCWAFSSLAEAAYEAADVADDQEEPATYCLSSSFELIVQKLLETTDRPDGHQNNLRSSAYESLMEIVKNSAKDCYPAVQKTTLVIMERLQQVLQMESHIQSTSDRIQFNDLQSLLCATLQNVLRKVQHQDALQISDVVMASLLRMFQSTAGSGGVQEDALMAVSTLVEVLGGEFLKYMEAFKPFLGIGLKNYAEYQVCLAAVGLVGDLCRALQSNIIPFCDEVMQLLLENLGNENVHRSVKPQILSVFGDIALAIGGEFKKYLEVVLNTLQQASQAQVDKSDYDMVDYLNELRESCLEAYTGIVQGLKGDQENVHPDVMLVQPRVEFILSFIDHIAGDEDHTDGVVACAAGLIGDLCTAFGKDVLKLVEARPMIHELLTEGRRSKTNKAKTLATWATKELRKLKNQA
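FRET biosensor (snurportin 1 IBB flanked by EYFP and cerulean), 50 nM, with compound 5 min, then 0.125 microM importin beta in PBS, 1 mM DTT, 0.02% Tween-20, 0.1% BSA. CFP/YFP ratio read after 45 min at room temperature; pre-read flags interference.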
GLA inh pH 4.5 = blocks human alpha-galactosidase A at pH 4.5 | P06280 | purified enzyme, 4-MU-alpha-Gal fluorescence, pH 4.5 | activity change, negative = inhibition, % at 105 µM | 230,000 tested, under 10 active | AID 1467; inconclusive = small, poorly fitted or top-dose-only inhibition, or a rising curve; inactive = flat fitted curve, though single readings scatter; no compound was filed as active;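 also: 0% = full activity with enzyme and -100% = basal without enzyme; dose as in the result columns while the protocol names 77 µM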
Active calls of the source: *; ? = inconclusive; . = no result given; & = joins results of further samples.

SMILES | Rango dissoc inh | miR-21 FLuc | Rango complex inh | GLA inh pH 4.5
Cc1ccc(C2=NC(C)(C)N3C2C3c2ccc([N+](=O)[O-])cc2)cc1 (configuration not stated) | -11.0% | -4.6% | 0.3% | 6.1
Cc1nc2cc(-c3ccc(Cl)cc3)nn2c(C)c1CCC(=O)N1CCC2(CC1)OCCO2 | -2.1% | . | 3.4% | .
CCCCc1ccc(NC2=NCCCS2)cc1 | 1.2% | -13.6% | -0.8% | .
CC(=O)C1(c2ccccc2)CCN(C(=O)C2CCC(=O)N(CCc3cccc(F)c3)C2)CC1 (configuration not stated) | 26.3% | 10.1% | -1.0% | .
CCC(C)C1(CC)C(=O)NC(=O)N=C1N (configuration not stated) | -3.9% | 4.0% | -5.3% | -9.7
O=c1oc2ccccc2n1CCCOc1ccccc1 | -3.8% | -61.7% | -0.6% | -14.5
O=C(OC1CCN(CCCl)CC1)C(c1ccccc1)c1ccccc1 | -10.0% | . | 0.2% | -21.9
Cc1c(C(=O)C(=O)N2CCOCC2)c2ccccc2n1Cc1ccccc1 | -4.7% | 3.8% | 3.2% | .
CNC(=O)Oc1ccccc1C1CCCCC1 | 4.6% | . | 3.7% | .
CC1OC(NCCc2ccccc2)C(O)C(O)C1O (configuration not stated) | -2.5% | 2.8% | -2.1% | 4.5
O=C(Cc1ccccc1)N1CCN(CC2CC=CCC2)CC1 (configuration not stated) | 4.4% | -11.1% | -0.7% | -9.2
O=C1C2CCCN2C(c2cccnc2)N1c1ccc(Cl)c(Cl)c1 (configuration not stated) | -8.8% | -8.4% | 0.1% | -0.2
Cn1cc(C(=O)OCC(=O)N2CCCCC2)c2ccccc21 | -24.5% | . | -2.3% | .
O=C(c1cccc(C(F)(F)F)c1)C1CCCN(Cc2ccccc2O)C1 (configuration not stated) | -15.0% | -1.2% | 1.1% | -10.8
CCNCC1(c2ccc(OC)c(OC)c2)CCCC1 | ? | 2.2% | -1.8% | 2.4
COCCCNC(=O)c1c(NC(=O)c2ccco2)n(Cc2ccccc2)c2nc3ccccc3nc12 | ? | -0.3% | ? | 6.1
CCOP(=O)(OCC)OCC | -0.7% | . | 7.8% | .
CCC1=Nc2cc(C(=O)N3CCC4(CC3)OCCO4)ccc2Sc2ccc(Br)cc21 | 0.9% | -0.6% | 2.9% | .
CC(=NCC1CCCO1)c1c(O)n(Cc2ccccc2)c(=O)[nH]c1=O (configuration not stated) | -0.8% | -5.2% | -1.5% | 2.6
C[n+]1c(-c2ccccc2)cc(-c2ccc(O)cc2)cc1-c1ccccc1 | 3.0% | 11.8% | 8.2% | -11.3
Cc1ccccc1NC(=O)CCl | -12.7% | 20.3% | -1.0% | -10.9
CC12CN3CCN(CC(C3)C1O)C2 (configuration not stated) | -11.0% | -5.9% | 1.7% | -4.3
C[N+](C)(N)CCOC(=O)C(O)(c1ccccc1)C1CCCCC1 (configuration not stated) | 0.6% | . | 2.9% | .
C=C1C[C@@H]2[C@H](CC[C@]3(C)C(=O)CC[C@@H]23)[C@@]2(C)C=CC(=O)C=C12 | . | -4.7% | . | -21.1
Cc1ccc(OCC(=O)Nc2ccc(Cl)cc2C(=O)c2ccccc2)cc1 | 37.9% | 8.0%&-3.8% | 2.7% | -3.3
Cc1c(S(=O)(=O)Nc2cccc(Cl)c2)c(=O)n(C)c(=O)n1C | 10.9% | -3.0% | ? | -4.4
CCCCCn1c(=O)c(C(=O)Nc2cccc(C)c2)c(O)c2ccccc21 | -1.4% | -1.7% | 9.5% | .
O=C1NC(=O)C(CCc2ccncc2)(Cc2cccc(Cl)c2Cl)C(=O)N1c1ccc(Br)cc1 (configuration not stated) | 0.5% | ? | 2.0% | 5.0
CCCCCn1c(=O)c(C(=O)Nc2ccccc2C)c(O)c2ccccc21 | 6.1% | -35.3% | 0.4% | .
CCn1c(O)c(C=NCc2ccccc2)c(=O)[nH]c1=S | 0.8% | -1.8% | 3.8% | 4.7
CN1CCC(O)(c2ccccc2)C2CCCC21 (configuration not stated) | -6.0% | -1.1% | -0.6% | 0.4
COc1ccc(CNC(=O)/C=C/c2ccc3[nH]cc(CCN(C)C)c3c2)cc1 | 6.2% | -16.6% | -4.2% | -6.0&0.5
O=C1CN=C(c2ccccc2F)c2cc(Cl)ccc2N1 | ? | 0.6% | -15.5% | .
Cc1ccc(CS(=O)(=O)Cc2ccc(C(=O)N3CCC4(CC3)OCCO4)o2)cc1 | 2.8% | -3.9% | -2.8% | -0.9
CSc1ccccc1C(=O)C1CCCN(Cc2ccccn2)C1 (configuration not stated) | -2.0% | -0.9% | 1.0% | 3.0
C=CCn1c(O)c(C(CC)=NCCc2c[nH]c3ccccc23)c(=O)[nH]c1=O | -7.3% | 22.9% | -0.8% | 0.1
Cc1ccccc1-n1c(O)c(/C=N/NC(=O)c2ccncc2)c(=O)[nH]c1=O | -24.7% | -0.1% | ? | -16.7
CCOC(=O)C(NC(C)=O)C(OC(C)=O)c1cccc(N(CCCl)CCCl)c1 (configuration not stated) | -5.8% | -4.8% | 1.8% | 10.2
FC(F)(F)c1cccc(C2NCc3ccccc3-n3cccc32)c1 (configuration not stated) | -9.1% | -2.3% | 3.1% | .
COC(=O)C1=C(c2cc3ccccc3o2)C[C@@H]2CC[C@H]1N2C(=O)NCc1ccccc1 | -9.8% | . | -2.1% | .
COc1cccc(-n2c(O)c(C=NCCN3CCNCC3)c(=O)[nH]c2=S)c1 | 11.9% | -1.0% | 1.7% | .
Cc1cccnc1NC1=NCC(C)S1 (configuration not stated) | 30.5% | -4.3% | 1.0% | 0.3
C[C@]12CCC(=O)CC1CCC1C2CC[C@]2(C)C(OC(=O)CCC(=O)O)CCC12 (some centres not stated) | -2.6% | -7.6% | 1.9% | .
CCCC1C(C#N)=C(N)Oc2c1c(=O)oc1ccccc21 (configuration not stated) | -0.8% | 1.7% | 0.9% | -1.9
O=S(c1ccccc1)c1ccccc1 | 5.1% | . | ? | .
O/N=C/c1c[nH]c2ccccc12 | 2.4% | 4.6% | -2.4% | 2.9
O=C1CC(=O)N(c2ccc(Cl)cc2Cl)C(=O)N1 | -4.1% | -1.3% | ? | 3.5
COc1ccc(OC)c(C(O)C2CCCCN2)c1 (configuration not stated) | 5.0% | 0.4% | 1.2% | .
CO[C@H]1C=C2CCN(C)[C@H]2C2c3cc4c(cc3C(=O)O[C@@H]21)OCO4 (some centres not stated) | 2.0% | . | 2.7% | .
O=C(c1c[nH]cc1-c1ccccc1)c1cccc2ccccc12 | -9.8% | -5.4% | 6.2% | -16.1
CC12CCC3C(CCC4CC(=O)C(C(O)C(F)(F)F)CC43C)C1CCC2O (configuration not stated) | -6.4% | . | -0.6% | .
CC(=O)Nc1ccc2c(c1)CC1(C(=O)N(C)C(=O)N(C)C1=O)C1CCCN21 (configuration not stated) | ? | -2.2% | ? | -10.6
CC[C@@]1(O)C(=O)OCc2c1cc1n(c2=O)Cc2cc3c(NC(=O)CN)cccc3nc2-1 | 0.1% | 13.6% | 0.1% | ?
CCOP(=O)(CCP(=O)(OCC)OCC)OCC.C[CH2][Sn]([Cl])([Cl])[CH2]C | 17.8% | . | 1.7% | .
COc1cc(/C=C2\C(=O)NC(=O)N(c3ccccc3)C2=O)c([N+](=O)[O-])cc1OC | 2.9% | -6.4% | -2.2% | -11.6
COc1cccc(-n2c(CN3CCN(C)CC3)nc3ccc([N+](=O)[O-])cc3c2=O)c1 | 20.7% | -15.5% | 0.8% | 0.5
CCC(=NCc1cccnc1)c1c(O)n(Cc2ccccc2)c(=O)[nH]c1=O | 0.0% | -15.6% | -1.1% | 5.9
Clc1cccc(CN2CCCCC2c2cccnc2)c1 (configuration not stated) | 0.5% | -0.5% | -1.7% | -4.8
O=C(O)c1cccc(NC(=O)N2C[C@H]3C[C@@H](C2)c2cccc(=O)n2C3)c1 | -2.7% | -4.8% | 0.1% | .
COC(=O)C(C)Oc1cc(C)cc2oc(=O)c3c(c12)CCC3 (configuration not stated) | 0.1% | -8.1% | -0.5% | 7.3

(next part)
SMILES | Rango dissoc inh | miR-21 FLuc | Rango complex inh | GLA inh pH 4.5
NS(=O)(=O)OC(CCc1ccccc1)C(Cl)(Cl)Cl (configuration not stated) | -31.1% | 2.1% | 8.0% | .
N#CC(c1cccnc1)N1CCOCC1 (configuration not stated) | -5.1% | 7.5% | -3.9% | .
COC(=O)C1=C(c2ccc(OC(F)(F)F)cc2)C[C@@H]2CC[C@H]1N2C(=O)NCCOc1ccc(OC)cc1 | 5.3% | . | -2.6% | .
CCC(=O)Nc1ccc(-c2ccc(N3CCN(C)CC3)nn2)cc1 | -2.6% | -38.8% | 1.4% | .
O=C1NC2NC(=O)N([N+](=O)[O-])C2N1 (configuration not stated) | 46.7% | -1.1% | 2.6% | -13.3
Cc1cc(OCC(=O)N2CCCN(C)CC2)ccc1Cl | -14.5% | -20.9% | -6.4% | .
N=C(N)c1c(O)n(C2CCCCC2)c(=O)n(C2CCCCC2)c1=O | 0.8% | 5.7% | 0.5% | -9.2
CNc1cc(N2CCNCC2)ccc1[N+](=O)[O-] | -7.4% | 2.8% | -0.9% | 6.5
Cc1c(C=O)c2ccccc2n1Cc1ccc(F)cc1 | -0.1% | -0.2% | -2.5% | -15.6
COc1ccc2c(c1OC)C(=O)O[C@H]2[C@@H]1c2cc3c(cc2CCN1C)OCO3 | -3.3% | . | -0.6% | .
Cc1ccc(NP(=O)(c2ccccc2)c2nc3ccccc3s2)cc1 (configuration not stated) | 26.2% | -17.8% | 4.6% | -2.0
c1ccc(CNC2=NCCS2)cc1 | 0.2% | 1.1% | -3.8% | 4.1
CCOC(=O)C(O)(c1ccc(N(CC)C(=O)COc2ccccc2)cc1)C(F)(F)F (configuration not stated) | -14.0% | -9.9% | -1.2% | 3.3
CCOP(=O)(OCC)c1nc(-c2cccc3ccccc23)oc1NCCc1ccc(OC)cc1 | 2.3% | -11.5% | -1.2% | ?
Cn1cccc1/C=C1\C(=O)NC(=O)N(CCC2=CCCCC2)C1=O | -14.1% | -0.9% | 0.0% | 2.8
CCn1c(O)c(/C=N/NC(=O)c2ccccc2)c(=O)[nH]c1=S | ? | -47.4% | ? | 0.3
COc1ccc2c(c1O)-c1c(OC)c(OC)cc3c1[C@H](C2)N(C)CC3 | -5.0% | . | 4.9% | -1.6&5.6
CCN(CC)P(=O)(Oc1cccc(C)c1)N(CC)CC | -0.6% | -0.4% | -1.5% | 3.8
CCC1CN1P(=O)(N1CCCC1)N1CC1CC (configuration not stated) | 1.0% | . | -1.5% | .
O=C1OCCN1P(=O)(c1ccccc1)c1ccccc1 | -12.8% | -1.8% | 5.5% | 0.8
C[C@]12C[C@@H](O)[C@H](O)CC1=CCC1C2CC[C@@]2(C)C1CC[C@@H]2O (some centres not stated) | -10.0% | . | 10.1% | .
O=P(O)(O)/C=C(\Cl)c1ccccc1 | -0.6% | 0.7% | -4.2% | -4.2
O=C(c1cccn2c(=O)c3cc(Br)ccc3nc12)N1CCC2(CC1)OCCO2 | ? | 2.5% | ? | -5.3
CCN(CC)C(=O)c1ccc(NC(=O)CN2CCc3cc(OC)c(OC)cc3C2)cc1 | -13.9% | -6.9% | 0.4% | .
Cc1cccc(OCC(=O)N2CCN(Cc3ccncc3)CC2)c1 | -1.4% | 0.2% | -0.8% | 2.4
CC(=O)N1CCC(N2CCCC(C(=O)c3cccc(Cl)c3)C2)CC1 (configuration not stated) | 2.8% | -3.4% | 3.4% | 2.3
CCOc1ccccc1-n1c(O)c(C=NCCCN(CC)CC)c(=O)[nH]c1=O | -1.9% | 0.6% | 0.9% | 6.6
COc1ccc2c(c1O)C13CCN(C)C(C2)C1CCC(=O)C3 (configuration not stated) | 4.5% | . | 1.4% | .

This is a subset, so the mix of outcomes need not match the whole.
